# VDR inh = Inhibitors of the vitamin D receptor (VDR): qHTS. Vitamin D3 receptor (Homo sapiens), P11473. hit rate 0.93% among 400,000. Potency, µM, without a hit: max response, negative = inhibition, most hits filed as inhibitors. VDR-SRC2-3 peptide fluorescence polarization, 2 h. AID 504847, 2011; active = well fitted inhibition curve with a large enough effect; inconclusive = small, poorly fitted or top-dose-only effect, or another doubt; inactive = no such curve, though single readings can be large or run the other way; also: series mostly up to about 120 µM
# Target sequence (P11473 whole entry, looked up): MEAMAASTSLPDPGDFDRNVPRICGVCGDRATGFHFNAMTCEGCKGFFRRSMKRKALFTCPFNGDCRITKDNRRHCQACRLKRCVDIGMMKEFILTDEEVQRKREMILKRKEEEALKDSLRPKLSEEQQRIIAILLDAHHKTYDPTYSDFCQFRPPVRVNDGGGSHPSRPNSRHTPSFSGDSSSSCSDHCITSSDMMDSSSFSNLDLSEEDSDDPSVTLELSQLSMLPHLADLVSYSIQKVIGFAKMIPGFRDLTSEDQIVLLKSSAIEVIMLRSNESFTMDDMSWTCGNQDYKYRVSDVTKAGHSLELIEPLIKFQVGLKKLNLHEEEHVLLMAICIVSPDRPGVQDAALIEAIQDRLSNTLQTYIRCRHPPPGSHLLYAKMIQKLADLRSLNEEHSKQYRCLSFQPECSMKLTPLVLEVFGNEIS
#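 Two reagent solutions held at 4 deg C in the dark were dispensed, compounds pinned at 23 nl, and the mixture incubated 2 h at room temperature. Read-out: fluorescence polarization of VDR–SRC2-3 peptide binding.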
# * = called active by the depositor; ? = inconclusive; & = joins results of further samples; [ ] = dose if it differs, or a comment. % is scaled to controls: 0 for no effect and ±100 for the full control effect; potency is read from the fitted curve at half-maximal effect. Not all compounds are listed (hit frequency here may not be typical).
mol	VDR inh
O=c1nc(N2CCOCC2)nc(N/N=C/c2ccc3c(c2)OCO3)[nH]1	-15%
O=S1(=O)CCOC[C@H](CC2CCCCC2)N1Cc1ccccc1F	?
Nc1c(-c2ccccc2)cnn1-c1ccc(C(=O)O)cc1	-5%
CCN(CC)S(=O)(=O)c1ccc(C(=O)NCC2(N3CCOCC3)CCCCC2)cc1	-10%
CCOC(=O)CCP(=O)(O)C(O)c1ccccc1 (centres undefined)	-6%
COc1ccc(-n2c(=O)c3c(c4cc(OC)ccc4n3C)n(CCC(C)C)c2=O)cc1	4%
O=C1CCCCC1Sc1nnc(Nc2ccccc2)s1 (centres undefined)	-15%
C/C(=N\NC(=O)c1c(Br)c(C)nn1C)c1cccc(NC(=O)c2ccccc2F)c1	16%
CCCCNC(=O)COC(=O)c1cc(Br)ccc1Cl	-29%
CCOc1cccc(CC(=O)Nc2ccc3nc(N4CCCCC4)cc(C)c3c2)c1OCC	17%
C=C(C)C(=O)N1CC2(CC(c3cccc(NC(=O)/C=C\C)c3)=NO2)C[C@H]1C(N)=O (some centres undefined)	-6%
O=c1nc2onnc2c(C=NO)[nH]1	19%
COc1ccccc1NC(=S)NCc1cccs1	7%
COc1cc(/C=C2\SC(=S)N(C(Cc3ccccc3)C(=O)O)C2=O)ccc1O (centres undefined)	?
COc1cc(OC)cc(C(=O)NC(C(=O)Nc2ccc3c(c2)OCO3)C(C)C)c1 (centres undefined)	-1%
Cc1ccc(S(=O)(=O)Oc2ccccc2/C=N/Nc2ccc(C(=O)O)cc2)cc1	61%[activator]
O=C(CN1C(=O)C2CC=CCC2C1=O)OCCN1C(=O)c2ccccc2C1=O (centres undefined)	8%
CCC/C=N/NC(=O)c1ccc(F)cc1	-13%
CCOC(=O)c1cnc(Nc2nc3ccccc3o2)nc1CN1CCN(C)CC1	?
CCCCCCCN1C2=NCCCN2c2ccccc21	26%
O=Cc1cnc(N2CCN(c3ccccc3)CC2)s1	18%
CC(C)C[C@@H](CN)NC(=O)c1nc[nH]c1C(=O)N[C@@H](C)C(=O)CNC[C@H](C)NC(=O)c1nc[nH]c1C(=O)N[C@@H](Cc1ccccc1)C(=O)O	-20%
CCOC(=O)c1ccc(OCCOc2cccc(C)c2)cc1	-19%
Cc1ccc(NC2=C(Cl)C(=O)OC2OC(=O)c2ccccc2C)cc1 (centres undefined)	-11%
CC(=O)Nc1cccc(NC(=O)CSc2nc(=O)n(CCCN3CCOCC3)c3c2CCC3)c1	-8%
O=C(N/N=C/c1sc(N2CCCCC2)nc1-c1cccs1)C1CC1	-8%
COc1ccc(-c2c(C)n([O-])c3c([n+]2=O)CCCCC3)cc1	9%
CC(=O)NCc1ccc(S(=O)(=O)N/N=C/c2ccccc2)cc1	1%
O=C(CNCc1ccccc1)NCCCN1CCCC1=O	-3%
CCOc1ccc(-c2csc(NC(=O)c3ccc(S(=O)(=O)N4CCc5ccccc5C4)cc3)n2)cc1	-2%
O=C(NCCc1ccccc1Cl)c1ccc2c(=O)n(-c3ccccc3)c(=O)[nH]c2c1	-2%
Cc1ccc(C)c(NS(=O)(=O)c2ccc(OCC(=O)NCc3ccccn3)cc2)c1	-3%
NC(=NCCc1c[nH]c2ccccc12)NC(=O)c1ccc(Cl)cc1	24%
O=C(CSc1nc2ccccc2c(=O)n1-c1ccc(F)cc1)NC1CCS(=O)(=O)C1 (centres undefined)	-15%
CCC(=O)N1CCc2cc(S(=O)(=O)CCC(=O)Nc3ccc(Cl)c(C(F)(F)F)c3)ccc21	-14%
O=C(Cc1ccc(Br)cc1)OCC(=O)N1CCCCCC1	-9%
COc1ccc(NC(=O)NCCc2ccc(Cl)cc2)cc1OC	-4%
CCc1ccc(-n2c(Cc3ccccc3)nnc2SCc2nc(-c3cccs3)no2)cc1	7%
COc1ccc(Nc2nnc(Cc3ccccc3)c(=O)[nH]2)c(OC)c1	-12%
O=C(COC(=O)c1cc(-c2cccs2)nc2ccccc12)NC1CCS(=O)(=O)C1 (centres undefined)	-16%
O=C(CCNS(=O)(=O)c1ccc2c(c1)CCN2C(=O)C1CC1)N1CCN(c2ccc(F)cc2)CC1	13%
c1nc(N2CCC3(CC2)OCCO3)c2[nH]cnc2n1	1%
Cc1cc(C)n(CC(C)O)c(=O)c1C#N (centres undefined)	-3%
CC(C)[C@@H](C(=O)N[C@@H](Cc1ccccc1)C(=O)O)N1C(=O)N2CCc3c([nH]c4ccccc34)[C@@]2(C)C1=O	-16%
O=S(=O)(Nc1ccc(-c2ccc3nncn3n2)cc1)c1ccccc1F	-6%
CCOC(=O)c1cc2c(=O)n3ccccc3nc2n(Cc2ccc(Cl)cc2)c1=N	8%
COC(=O)CN1C(=O)NC2(CCCc3ccccc32)C1=O (centres undefined)	5%
O=C(CSc1nnnn1C1CC1)Nc1ccc(S(=O)(=O)N2CCOCC2)cc1	14%
COc1cccc(C(=O)NCCCn2ccnc2)c1	-6%
CC1(C)O[C@H]2[C@@H](O1)[C@@H](C(=O)Nc1ccccc1O)O[C@@H]1OC(C)(C)O[C@@H]12	7%
COc1ccc(C(=O)Nc2ccc(Cl)cc2C(=O)NCc2ccco2)cc1	-1%
CC1CC1C(=O)OCC(=O)Nc1cccc(Br)c1 (centres undefined)	5%
OCCC1CN(Cc2nc3c(s2)CCCC3)CCN1CCc1ccccc1 (centres undefined)	-3%
CCOc1ccc(-c2nc(S(=O)(=O)c3ccccc3)c(NCc3cccnc3)o2)cc1	6%
CC(=O)c1cccc(N=Cc2c(O)c3ccccc3oc2=O)c1	8%
COc1cccc(-n2nnnc2SCC(=O)NCCc2ccc(OC)c(OC)c2)c1	-9%
C/C(=C\C(=S)Nc1ccccc1)Nc1cccc2ccccc12	-20%
COC(=O)c1ccc(Sc2ccccc2NS(=O)(=O)c2ccc(NC(C)=O)cc2)nc1	-7%
CCOC(=O)C1=C(C)Nc2nc(SCC(=O)OC)nn2C1c1cc(F)cc(F)c1 (centres undefined)	14%&15%
Cc1cccc(C)c1NC(=O)CN(C)C(=O)c1cccc(-n2cccc2)c1	-11%

# Remaining list, next part.
structure	VDR inh
CC(C)C[C@H]1COCCS(=O)(=O)N1Cc1cccc(F)c1	-21%
CC(C)(C)NC(=O)C1CC(=O)OC12CCOC(C)(C)C2 (centres undefined)	0%
CC(CN1CCCCC1)c1ccccc1 (centres undefined)	1%
COc1cccc(CC(=O)Nc2ncc(C)s2)c1	-19%
COc1cccc(NC(=O)CN(C)S(=O)(=O)c2ccc3c(c2)n(C)c(=O)c(=O)n3C)c1	-2%
CCc1ccc(NC(=O)N2CCN(c3ccc(F)cc3)CC2)cc1	5%
CC1CCN(C(=O)CNC(=O)CNS(=O)(=O)c2ccccc2)CC1	-9%
Cn1ccnc1C(O)(c1nnc(-c2ccccc2)o1)C(F)(F)F (centres undefined)	1%
CCCc1cc(=O)[nH]c(SCCOc2ccc(Cl)cc2)n1	-2%
CCCCn1c(N)c(N(Cc2ccccc2OC)C(=O)CCSC)c(=O)[nH]c1=O	-4%
COC(=O)c1ccc(C)c(NC(=S)NCc2ccc(Cl)cc2)c1	-13%
CCCCN(C)C(=O)c1cccc(OC2CCN(CC(C)(C)C)CC2)c1	-9%

# Brought forward from above: 7 entries, then new ones.
structure	VDR inh
CCc1ccc(NC(=O)N2CCN(c3ccc(F)cc3)CC2)cc1	5%
CC1CCN(C(=O)CNC(=O)CNS(=O)(=O)c2ccccc2)CC1	-9%
Cn1ccnc1C(O)(c1nnc(-c2ccccc2)o1)C(F)(F)F (centres undefined)	1%
CCCc1cc(=O)[nH]c(SCCOc2ccc(Cl)cc2)n1	-2%
CCCCn1c(N)c(N(Cc2ccccc2OC)C(=O)CCSC)c(=O)[nH]c1=O	-4%
COC(=O)c1ccc(C)c(NC(=S)NCc2ccc(Cl)cc2)c1	-13%
CCCCN(C)C(=O)c1cccc(OC2CCN(CC(C)(C)C)CC2)c1	-9%
N#Cc1cc2c(OCC(O)CN3CCN(C(c4ccccc4)c4ccccc4)CC3)cccc2[nH]1 (centres undefined)	-1%&-8%
O=C(NNCNNC(=O)c1ccncc1)c1ccncc1	-3%
O=C(NC(=O)c1ccccc1)Nc1ccc(Cl)cn1	-11%
O=C(Nc1ccccc1)N1CCSc2cc(Cl)ccc21	-9%
COc1ccc(CCNC(=O)CN(C)S(=O)(=O)c2ccc(OC)cc2)cc1	-6%
Cc1occc1C(=O)N(Cc1nc(-c2ccccc2)no1)C(C)C	-13%
N#CCN(CC#N)C(=O)C1c2ccccc2Oc2ccccc21	-15%
COc1ccc2[nH]c3c(=O)n(/N=C/c4ccc(OC)c(CN5CCCC5)c4)c(C)nc3c2c1	-8%
Cc1cc(C)cc(NC(=O)COC(=O)CC2CCCC2)c1	-2%
Cc1cc([N+](=O)[O-])ccc1NC(=O)c1csc(C)c1C	5%
Cc1ccccc1OCCC(=O)OCC(=O)NC1CC1	-3%
COc1ccccc1C(=O)NC(C)c1cccc2ccccc12 (centres undefined)	-4%
Cc1cccc(OC(=O)C2C(c3ccccc3)C(C(=O)O)C2c2ccccc2)c1 (centres undefined)	-5%
CCc1ccc(NC(=O)CCS(=O)(=O)c2ccc3c(c2)n(C)c(=O)c(=O)n3C)cc1	-17%
Cc1ccc(NNC(=O)c2c(C)noc2C)cc1Cl	?
CSc1ncc(Cl)c(C(=O)Nc2c(C(=O)Nc3cccc(Cl)c3)oc3ccccc23)n1	5%
O=C(NCc1cccs1)C1CC1	8%
CCOCc1[nH]c(=S)[nH]c(=O)c1Cc1ccc(OCC)cc1	-16%
CCN(CC)CCn1c(SCC(=O)Nc2ccc3c(c2)CCC3)nc2ccccc2c1=O	?
CCCCCCC1/C(=N\NC(=O)c2ccccc2)CCC1C(=O)OC (centres undefined)	27%
CCOC(=O)NC(c1ccc(C(C)C)cc1)C(Cl)(Cl)Cl (centres undefined)	-1%
COc1ccc(CCNC(=O)COc2cccc3c2OC(C)(C)C3)cc1OC	-23%
COc1ccc(NC(=O)CSc2nnc(-c3cccnc3)o2)cc1	-16%
CC(C)(C)c1ccccc1NC(=O)C1=COCCO1	2%

# Retrieved one by one from the list above:
structure	VDR inh
CSc1ncc(Cl)c(C(=O)Nc2c(C(=O)Nc3cccc(Cl)c3)oc3ccccc23)n1	5%
CCN(CC)CCn1c(SCC(=O)Nc2ccc3c(c2)CCC3)nc2ccccc2c1=O	?

# The list continues:
structure	VDR inh
Cc1cc(C)nc(SCc2nnc(SCC(=O)Nc3ccc(C)c(C)c3)n2Cc2ccco2)n1	-10%
CCCSc1nnc2c(n1)OC(c1sccc1C)Nc1ccccc1-2 (centres undefined)	-26%
CSc1nc2cc(S(=O)(=O)N3CCOCC3)ccc2s1	-3%
C/C(=N\NC(=O)c1ccccc1)c1ccc(-n2ccnc2)cc1	4%
CCC(C)NC(=O)c1ccccc1-c1nc2ccccc2[nH]1 (centres undefined)	1%
COc1cccc(C(=O)N2CCC(N3CC(C)OC(C)C3)CC2)c1 (centres undefined)	-15%
CCOC(=O)c1c(N)sc(C(=O)Nc2ccccc2F)c1C	16%
CCOC(=O)C1=CN(c2cccc(F)c2)C=C(C(=O)OCC)C1c1cc(OC)c(O)c([N+](=O)[O-])c1	-7%
CCOc1ccc(S(=O)(=O)N(CC)CC)cc1NS(=O)(=O)c1ccc(F)c(F)c1F	71µM*
N#Cc1ccc(CN2CCCC3(CCN(C(=O)c4cccc(F)c4)CC3)C2)cc1	-15%
COc1ccc(NC(=O)C2CCCCN2S(=O)(=O)c2ccccc2)cc1S(=O)(=O)N1CCOCC1 (centres undefined)	-4%
CC1(C)CC(=O)C=C(C(=O)N2CCCC(CCC(=O)NCc3ccccc3F)C2)O1 (centres undefined)	-12%
CCOC(=O)c1c(NC(=O)Cn2cnc([N+](=O)[O-])n2)sc2c1CCCC2	-7%
CCC(=O)Nc1c(C)nn(C(=O)CC)c1C	16%
Cc1[nH]c2ccccc2c1C(=O)CN1C(=O)C(=O)N(Cc2ccco2)C1=O	-6%
O=C(NCCCN1CCCC1=O)c1c(O)nc2sccn2c1=O	-9%
CCCCOC(=O)c1nc[nH]c1C(=O)OCCCC	-2%
CC(=O)Nc1ccc(S(=O)(=O)N(C)CC(=O)OCC(=O)N2CCCC2=O)cc1	-4%
NC(=O)c1c(N)sc(=S)n1CC1CCCO1 (centres undefined)	-17%
COc1cc(C(=O)N2CCN(S(=O)(=O)c3ccc(Cl)cc3)CC2)ccc1OCC(=O)N1CCOCC1	-21%
Cc1ccc(C(=O)Nc2ccc(Br)c(C(F)(F)F)c2)cc1	1%
CC(O)C#C[Si](C)(C)c1ccccc1 (centres undefined)	-3%
CC1(C)CC(NC(=O)c2ccc(Cl)c(Cl)c2)CC(C)(C)N1	8%
CCC1=C(c2ccc(C)cc2)S(=O)(=O)N=C1N1CCC(C(=O)NCc2ccc(N(C)C)cc2)CC1	3%
CCC(CC)C(=O)Nc1cccc(-c2nc3cccnc3s2)c1	7%
COc1ccc(S(=O)(=O)Nc2ccc(S(=O)(=O)Nc3cc(C)nc(C)n3)cc2)cc1OC	-8%
CCOc1cc(N2CCOCC2)c(OCC)cc1NC(=O)CSc1ncn[nH]1	-13%
CC(C)OC(=O)CSc1nnc(-c2ccncc2)n1N	-5%
O=C1c2c(O)cc(O)cc2OC(c2ccc(O)c(O)c2)C1O (centres undefined)	2%
CCN(c1ccccc1)c1cc(NC)[n+](C)c(C)n1	1%
COc1ccc2[nH]c3c(N4CCN(Cc5ccc6c(c5)OCO6)CC4)ncnc3c2c1	-5%

# Rewritten with values ahead of the structure: 3 of the compounds above
VDR inh | compound
-15% | O=c1nc(N2CCOCC2)nc(N/N=C/c2ccc3c(c2)OCO3)[nH]1
? | O=S1(=O)CCOC[C@H](CC2CCCCC2)N1Cc1ccccc1F
-5% | Nc1c(-c2ccccc2)cnn1-c1ccc(C(=O)O)cc1

# High-throughput results deposited in PubChem BioAssay by National Center for Advancing Translational Sciences (NCATS).
